MLL AF4-AF9 inh: inhibitors of human MLL-AF4/AF9 interaction; P42568; AlphaScreen, biotin-AF4 peptide binding to FLAG-AF9; inhibition, % at 10 µM; 350,000 tested, 0.47% active;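 active means every replicate reaching a set inhibition limit, whatever the replicate mean, cut at about 25% in these data; inconclusive means mean inhibition reaches that limit but some replicates miss it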;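 further: 0% = plate neutral control median and 100% = total signal loss; the record names both 10 and 1 µM as test concentration; the first replicate is given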
Target sequence (P42568 whole entry, looked up): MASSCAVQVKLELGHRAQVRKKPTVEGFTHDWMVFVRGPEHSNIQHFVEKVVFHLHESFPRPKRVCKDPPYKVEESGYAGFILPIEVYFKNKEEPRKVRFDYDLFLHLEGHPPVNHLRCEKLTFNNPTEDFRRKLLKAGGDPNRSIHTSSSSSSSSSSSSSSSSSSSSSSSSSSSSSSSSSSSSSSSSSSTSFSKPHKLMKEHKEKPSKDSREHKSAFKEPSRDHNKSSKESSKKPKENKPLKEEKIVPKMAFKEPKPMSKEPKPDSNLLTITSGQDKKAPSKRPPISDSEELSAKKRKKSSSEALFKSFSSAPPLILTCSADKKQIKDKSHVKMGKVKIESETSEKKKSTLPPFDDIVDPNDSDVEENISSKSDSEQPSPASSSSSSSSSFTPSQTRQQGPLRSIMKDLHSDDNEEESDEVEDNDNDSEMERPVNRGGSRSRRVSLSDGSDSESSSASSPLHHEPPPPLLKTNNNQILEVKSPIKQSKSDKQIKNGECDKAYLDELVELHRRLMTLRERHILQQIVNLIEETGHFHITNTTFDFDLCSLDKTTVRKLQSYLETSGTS
ALR H2O2 inh: blocks human ALR sulfhydryl oxidase activity; purified ALR, DTT oxidation, H2O2 HRP-luminol luminescence; 290,000 tested, 3.8% active; P55789; inhibition, % (test concentration not listed); AID 485317;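 active means mean and each replicate at 75% or more; inconclusive means only one of the two met; inactive means neither met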;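 further: stock transfer was 7.5 nL into about 7.5 µL; 0% = neutral wells and 100% = wells with inactivated enzyme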
Target sequence (P55789 whole entry, looked up): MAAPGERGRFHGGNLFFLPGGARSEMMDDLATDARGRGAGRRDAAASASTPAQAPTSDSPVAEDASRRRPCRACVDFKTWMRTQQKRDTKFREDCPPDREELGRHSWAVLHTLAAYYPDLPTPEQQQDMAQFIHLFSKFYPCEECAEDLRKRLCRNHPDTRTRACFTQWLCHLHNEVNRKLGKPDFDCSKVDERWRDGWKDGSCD
rRNA inh HTS: inhibits bacterial ribosomal RNA function over humanized ribosomes; E. coli WT GFP vs humanized-ribosome RFP mutants, fluorescence, 24 h; hits give low values; DMSO median 0, no signal -100; GFP signal change (wild-type ribosome), % (test concentration not listed); 350,000 tested, 1.6% active;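 active means significant combined selectivity score with lowered wild-type GFP, culture density cut under 30%, mutant RFP and density less affected; inactive means any of these conditions unmet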; further: one replicate is shown; some compounds called inactive have numbers as strong as hits
RanGTP-Imp inh: disruptors of Ran-importin-beta complex formation – biochemical, FRET, CFP-Ran, YFP-importin-beta, homogeneous, primary screen; cell-free CFP-Ran/YFP-importin-beta FRET ratio; inhibition, % (test concentration not listed); 300,000 tested, 1.1% active;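 active means most replicates above 15%; inconclusive means exactly half above 15%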;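 further: 0% = DMSO wells and 100% = Ran loaded with GDP instead of GTP; wells of about 40 µL received 100 nL stock; the first replicate is given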
Calb FLC: C. albicans growth modulation with fluconazole | C. albicans CaCi-2 (fluconazole-resistant clinical isolate) + fluconazole, Alamar Blue growth, 48 h | growth inhibition, % (test concentration not listed) | 300,000 tested, 0.57% active;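 active means most replicates above 75%; inconclusive means exactly half above 75%; inactive means most below 75%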;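 further: all wells also contain fluconazole at 8 µg/ml as a sub-toxic cotreatment; 0% = median of DMSO wells and 100% = median of geldanamycin control wells; wells of about 8 µL received 7.5 nL stock; the first replicate is given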
FGF22 binding: shifts melting point of recombinant human FGF22 | recombinant FGF22 thermal shift, SYPRO orange fluorescence; percent of sucrose octasulfate shift, DMSO zero | AID 651658 | calls only at 9.99 µM | Q9HCT0 | 340,000 tested, 1.5% active;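 active means melting point raised past a set limit in the mean and every replicate; inconclusive means no clear call; three in four hits are not shown here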
Target sequence (Q9HCT0 whole entry, looked up): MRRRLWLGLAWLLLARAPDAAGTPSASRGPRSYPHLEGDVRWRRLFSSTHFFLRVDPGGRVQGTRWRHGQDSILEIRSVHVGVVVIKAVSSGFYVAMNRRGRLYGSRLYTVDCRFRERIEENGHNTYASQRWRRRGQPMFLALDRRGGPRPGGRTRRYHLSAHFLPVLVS
T cruzi inh: T. cruzi replication inhibition | T. cruzi beta-gal in NIH3T3, luminescence, 90 h | inhibition, % (concentration not given with the values) | 300,000 tested, 1.4% active | AID 1885;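 active means mean inhibition across valid replicates above about 55%, limit read from the data; inconclusive means mean below that limit but half or more replicates reach it; inactive means mean below it, under half of replicates reach it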;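 further: signal also drops with host cell toxicity which is not excluded here; 0% = plate median of DMSO wells and 100% = zero luminescence signal; higher percent means less beta-gal luminescence so fewer parasites; stock transfer was 50 nL into about 50 µL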
Beta cell apopt: blocks beta cell apoptosis; AID 435005; protection from apoptosis, % (test concentration not listed); INS-1E cytokine-induced death, ATP luminescence, 48 h; percent of positive-control rescue, neutral wells zero; 300,000 tested, 0.8% active;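 active means all replicates at 75% or more, or half of them and the mean; inconclusive means half reach 75% but not the mean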;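 further: 0% = cytokine-treated negative control wells and 100% = positive control rescue; higher means more ATP so stronger rescue from cytokine killing; wells of about 40 µL received 100 nL stock; the first replicate is given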
rRNA inh HTS OD600: further read-out of rRNA inh HTS, marked with its call; OD600 change, %; measured here: OD600 growth;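 optical density of the mix in the first replicate; 0 = DMSO median and -100 = no signal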
rRNA inh HTS RFP: also measured in rRNA inh HTS; calls as there; RFP signal change, %; measured here: RFP humanized mutant strains;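 first replicate; 0 = DMSO median and -100 = no signal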
Numbers without * were called inactive; i = inactive; ? = inconclusive; nt = not tested or not shown. The list is partial, so the mix of outcomes need not match the whole.

SMILES | MLL AF4-AF9 inh | ALR H2O2 inh | rRNA inh HTS | rRNA inh HTS OD600 | rRNA inh HTS RFP | RanGTP-Imp inh | Calb FLC | FGF22 binding | T cruzi inh | Beta cell apopt
COC(=O)C1=C(N)Oc2cc(C)[nH]c(=O)c2C1c1cc(OC)c(OC)c(OC)c1 (stereo not drawn) | nt | nt | nt | nt | nt | 3.7 | -4 | nt | -10 | -4
O=C(NCc1ccccn1)C1CCC(=O)N1C1CCCCC1 (stereo not drawn) | -1.7 | -6 | 9 | 7 | 1.5 | ? | -4 | i | 2 | -3
O=C(CN1C(=O)CCSc2ccc(S(=O)(=O)N3CCOCC3)cc21)Nc1cccc(F)c1 | 9.6 | -1 | -2 | 12 | 2.2 | -0.1 | -11 | i | 5 | nt
CCn1c(/C=N/c2nc3ccccc3n2C)nc2ccccc21 | 1.9 | 50 | -3 | -7 | -1.2 | 3.8 | 3 | i | -16 | -5
Cc1nn(C(C)C(=O)NC2CC2)c(=O)c2nn(-c3ccccc3)c(C)c12 (stereo not drawn) | -6.9 | -4 | 10 | 5 | 0.3 | 1.5 | -9 | i | -3 | -2
CN(c1ccccc1)S(=O)(=O)c1cccc(NC(=O)c2ccc(=O)[nH]n2)c1 | -1.3 | -2 | -6 | -3 | 2.5 | nt | nt | i | nt | 10
CCN(C1CCS(=O)(=O)C1)S(=O)(=O)c1cccs1 (stereo not drawn) | nt | 0 | nt | nt | nt | 4.8 | 2 | nt | -3 | nt
CCN(CC)CCN(C(=O)c1ccc2c(c1)OCCO2)c1nc2c(Cl)cccc2s1 | 11 | 7 | -22* | -15* | -0.7* | 0.5 | -1 | i | 30 | -6
O=C1c2cc(CO)cc(O)c2C(=O)c2c(O[C@@H]3OC(CO)[C@@H](O)[C@@H](O)[C@@H]3O)cccc21 (stereo partly drawn) | -2.6 | -15 | 7 | 9 | 3.3 | -7.3 | 13 | i | -21 | -2
CN(C)S(=O)(=O)c1cccc(NC(=O)c2cc(-c3cccs3)nn2-c2cccc(Cl)c2)c1 | nt | 2 | nt | nt | nt | 1.1 | 26 | nt | 35 | 14
Cc1cc(C(=O)NC2CCCN(Cc3ccccc3F)C2)n[nH]1 (stereo not drawn) | -3.1 | 0 | -1 | -3 | 0.3 | 1.0 | -12 | i | 6 | -4
O=C(CSC1=NS(=O)(=O)c2ccccc2N1)NCCc1ccccc1 | -3.2 | -2 | 0 | 1 | -1.4 | 2.0 | 1 | i | -2 | nt
CCN(C(=O)c1ccc(S(=O)(=O)N2CCCC2)cc1)C1CCS(=O)(=O)C1 (stereo not drawn) | -0.1 | 1 | 5 | 2 | -1.7 | -7.7 | 5 | i | 4 | -1
N#CCSc1nc2ccccc2c(=O)n1CCC(=O)NC1CCCCC1 | nt | -1 | 9 | 14 | 1.8 | -4.4 | -6 | nt | 1 | nt
CCOC(=O)C1=C(CNCCOc2ccc(OC)cc2)NC(=O)NC1c1ccc2c(c1)OCO2 (stereo not drawn) | 3.2 | -4 | -17 | -22 | -1.7 | 1.4 | -3 | i | 5 | -2
O=C(NCc1cccnc1)c1ccc(S(=O)(=O)N2CCCCCC2)cc1 | 0.1 | -2 | -2 | 2 | -0.1 | 0.1 | -6 | i | 1 | 4
O=C1NC(=O)/C(=C/c2ccccc2OCc2ccccc2)S1 | -1.0 | nt | -55 | -67 | -22 | -3.7 | 60 | i | -2 | 10
Cc1c(Br)cc(C(=O)N2CCN(CCO)CC2)c(C)c1C | nt | nt | nt | nt | nt | -1.1 | 8 | nt | -3 | -2
Cc1ccsc1C(=O)OCC(=O)c1ccc[nH]1 | 2.8 | 1 | -1 | -1 | 0.5 | nt | nt | i | nt | 5
CCCc1cc(=O)[nH]c(SCC(=O)N2c3ccccc3NC(=O)C2(C)C)n1 | -1.0 | 10 | nt | nt | nt | nt | nt | i | nt | 0

5 entries from above, with two lines to a compound:
Under each structure: MLL AF4-AF9 inh	ALR H2O2 inh	rRNA inh HTS	rRNA inh HTS OD600	rRNA inh HTS RFP	RanGTP-Imp inh	Calb FLC	FGF22 binding	T cruzi inh	Beta cell apopt
- O=C1c2cc(CO)cc(O)c2C(=O)c2c(O[C@@H]3OC(CO)[C@@H](O)[C@@H](O)[C@@H]3O)cccc21 (stereo partly drawn)
    -2.6	-15	7	9	3.3	-7.3	13	i	-21	-2
- CN(C)S(=O)(=O)c1cccc(NC(=O)c2cc(-c3cccs3)nn2-c2cccc(Cl)c2)c1
    nt	2	nt	nt	nt	1.1	26	nt	35	14
- Cc1cc(C(=O)NC2CCCN(Cc3ccccc3F)C2)n[nH]1 (stereo not drawn)
    -3.1	0	-1	-3	0.3	1.0	-12	i	6	-4
- O=C(CSC1=NS(=O)(=O)c2ccccc2N1)NCCc1ccccc1
    -3.2	-2	0	1	-1.4	2.0	1	i	-2	nt
- CCN(C(=O)c1ccc(S(=O)(=O)N2CCCC2)cc1)C1CCS(=O)(=O)C1 (stereo not drawn)
    -0.1	1	5	2	-1.7	-7.7	5	i	4	-1

Following part:
SMILES | MLL AF4-AF9 inh | ALR H2O2 inh | rRNA inh HTS | rRNA inh HTS OD600 | rRNA inh HTS RFP | RanGTP-Imp inh | Calb FLC | FGF22 binding | T cruzi inh | Beta cell apopt
COc1ccc(N(CC(=O)N/N=C/c2cccc3c2OCCO3)S(=O)(=O)c2ccc(NC(C)=O)cc2)cc1 | nt | 9 | nt | nt | nt | 3.8 | 15 | nt | 14 | -12
Cc1cc(C(=O)CSc2ccc(F)cc2)cc(C)c1OC(=S)N(C)C | nt | 2 | nt | nt | nt | 0.4 | 13 | nt | 26 | -3
CCOc1ccc(NC(=O)Nc2cc(C)ccc2OC)cc1 | nt | nt | nt | nt | nt | 0.0 | -3 | nt | -7 | 10
CN(C)c1ccc(/C=N/NC(=O)c2nnn(-c3nonc3N)c2CN2CCCCCC2)cc1 | 0.3 | 5 | 9 | 8 | 5.0 | 0.4 | 5 | i | 2 | 2
Cn1cnnc1Sc1ccc(/C=C(\CC(=O)O)c2nc3ccccc3s2)cc1[N+](=O)[O-] | -42 | 66 | 2 | 3 | 0.3 | 4.4 | -2 | i | -11 | -6
COc1cccc(CSc2nc3nc(C)cc(C)n3n2)c1 | -1.1 | 1 | -8 | -10 | -1.2 | 3.1 | -3 | i | -11 | -3
COCc1c(C(=O)OCC(=O)c2ccc[nH]2)oc2ccccc12 | -1.8 | -3 | -10 | -16 | 6.3 | nt | nt | i | nt | 0
CC(C)(C)SCCNC(=O)COc1ccccc1 | nt | -4 | nt | nt | nt | 3.3 | -8 | nt | -16 | nt
CC(C)OC(=O)c1cc(NC(=O)c2nn(C)cc2Br)cc(C(=O)OC(C)C)c1 | nt | -15 | nt | nt | nt | -0.7 | 4 | nt | 27 | -14
Cc1cc(C(=O)N2CCN(c3ccc([N+](=O)[O-])cc3)CC2)c(C)o1 | 2.9 | 1 | -13 | -4 | 2.0 | -0.3 | 8 | i | -7 | nt
Cc1ccc(S(=O)(=O)NCCOc2nc(N(C)C)nc(N(C)C)n2)cc1 | -4.8 | 2 | 1 | -8 | 0.8 | ? | -6 | i | 9 | -3
CS/C(=N\S(=O)(=O)c1cccs1)Nc1ccc(Cl)cc1 | 4.1 | nt | -30* | -17* | 1.3* | 0.5 | 85* | i | -6 | -28
CCOC(=O)CSc1c(-c2ccccc2)c2cc(Cl)ccc2[nH]c1=O | -21 | 1 | -2 | -10 | 13 | 3.8 | 8 | i | 5 | -7
O=C(COc1ccc(Cl)cc1)NCc1nnc(SCC(=O)NCCc2ccccc2)o1 | nt | 0 | nt | nt | nt | -1.7 | 0 | nt | -14 | -3
CC(C)c1ccc(C(=O)OCC(=O)c2c(N)n(C)c(=O)n(C)c2=O)cc1 | 2.5 | 9 | 10 | 7 | 6.5 | nt | nt | i | nt | -9
CCCC1=Nc2cc(C(=O)NCCCOCC)ccc2Sc2ccccc21 | nt | -4 | nt | nt | nt | 0.2 | 1 | nt | 33 | 32
CC(O)Cc1cn(CC(=O)N2CCNCC2)nn1 (stereo not drawn) | -4.2 | nt | 11 | 11 | -2.3 | 3.4 | -8 | i | -25 | 1
S=C1NCN(CCc2ccccc2)CN1Cc1ccccc1 | -1.4 | nt | 14 | 7 | 4.4 | -1.4 | -2 | i | -21 | -4
CCCCC1=CC2=C(c3ccco3)C(=O)C(C)(OC(=O)c3ccc(OC)cc3)C(=O)C2=CN1C(CO)CO (stereo not drawn) | 1.1 | nt | 26 | 21 | 21 | -9.5 | 14 | i | -3 | -10
CCc1nnc(NC(=O)c2ccc(NC(=O)C(C)C)cc2)s1 | 1.3 | 35 | 5 | 12 | -1.4 | 2.6 | -11 | i | -8 | 1
C=C(C)C(C)(C#CCN1CCCC1)OC(C)=O (stereo not drawn) | nt | -3 | nt | nt | nt | 9.2 | 2 | nt | -11 | -1
O=C(O)COc1ccc(-c2nccc(-c3cccs3)n2)cc1 | nt | 6 | nt | nt | nt | 0.0 | 22 | nt | -7 | -7
O=C(CN1C(=O)c2ccccc2S1(=O)=O)N1CCN(c2ccc(F)cc2)CC1 | nt | 13 | nt | nt | nt | -0.5 | 11 | nt | -9 | -4
CC1CCN(C(=O)Cn2nnc(-c3ccccc3)n2)CC1 | -2.1 | 3 | 6 | 11 | -0.2 | 2.5 | -3 | i | -9 | -6
COc1cc([N+](=O)[O-])ccc1NC(=O)C[n+]1ccccc1C | nt | -12 | nt | nt | nt | 4.9 | -21 | nt | -19 | -4
CCCCCCCCCCCC1=C(O)C(=O)C=C(O)C1=O | nt | 22 | nt | nt | nt | -1.2 | 92* | nt | -12 | -3
COCCN(C(=S)Nc1c(C)cc(C)cc1C)C(C)c1cccs1 (stereo not drawn) | -0.3 | -2 | -21 | -21 | -1.6 | 2.2 | -4 | i | 4 | 0
CCOC(=O)COc1ccc2nsnc2c1 | nt | -9 | nt | nt | nt | -1.1 | -7 | nt | -7 | -2
COc1cc(OC)cc(C(=O)OCCNC(=O)Cn2cnc3c2c(=O)n(C)c(=O)n3C)c1 | -1.3 | -7 | 11 | 8 | -9.6 | -3.5 | 18 | i | -5 | -1
Cc1nn(C(=O)C2CC2)c(C)c1Sc1ccc(Cl)cc1 | nt | -9 | -9 | -11 | -3.0 | -2.1 | 0 | nt | -23 | -7
COc1ccccc1C(=O)NNC(=O)c1ccccc1[N+](=O)[O-] | -0.4 | -1 | 5 | 3 | 1.6 | -1.1 | -5 | i | 4 | 0
CCOc1cc(/C=C2\CN(C)C/C(=C\c3ccc(O)c(OCC)c3)C2=O)ccc1O | ? | nt | -32 | -30 | -1.5 | -5.1 | 37 | i | 62* | 1
COc1cc(-c2nnc(SCC(=O)c3cc(C)n(CC4CCCO4)c3C)o2)cc(OC)c1OC (stereo not drawn) | nt | nt | nt | nt | nt | -0.3 | 5 | nt | 10 | 1
Nc1c(-c2ccc(Cl)cc2)cnn1-c1cc(C(F)(F)F)cc(C(F)(F)F)c1 | -2.4 | -5 | 14 | 17 | 0.8 | -5.5 | -6 | i | 19 | -8
Cc1ccc(C2=NCCn3c2c2ccccc2[n+]3[O-])cc1 | 5.8 | 5 | -17 | -25 | -8.9 | -1.0 | 27 | i | -22 | -2

Source: PubChem
